H5N1 CPE – MDCK cell protection from H5N1 avian flu; cytopathic effect, luminescence, 72 h; hits give high values; no value below 0 was filed and about half of the inactive calls have no number; reference of the scale not given here; inhibition, % at 50 µM; actives 0.07% (n = 96,000); in the data active = inhibition above about 25%
An asterisk follows results filed as active; i = inactive; & = joins results of further samples. Not all compounds are listed; rates above refer to the full screens.

SMILES	H5N1 CPE
C(=N\n1cncn1)/c1ccc(N2CCOCC2)cc1	i
COc1ccc(C2(C(=O)NC3CCCCC3)CCOCC2)cc1OC	1.1
CCn1c(CCNC(=O)c2ccc(F)cc2)nc2ccccc21	2.1
COc1ccc(C(=O)NN(c2ccccc2)c2ccccc2)cc1	i
Cc1ccc(-c2noc(C3CCN(C(=O)Nc4ccc(C#N)cc4)CC3)n2)o1	i
COc1ccc(C(=O)/C=C/Nc2ccc([N+](=O)[O-])cc2C)c(OC)c1	i
Cc1ccc(C)c(CN2C(=O)C3CCCN3c3ccc(C#N)cc32)c1 (stereo not drawn)	0.0
CCOC(=O)Nc1c(O)ccc2oc(C)c(-c3ccccc3)c12	i
CC(=O)Nc1sc2c(c1C#N)CCCC2	i
CCC(Sc1nc(C)cc(=O)[nH]1)C(=O)Nc1nc2c(s1)CCCC2 (stereo not drawn)	0.7
CCOC(=O)c1c(-c2ccccc2)oc2ccc(OC(=O)N(C)C)cc12	i
CSc1nnc(-c2cccc(C)c2)n1N	0.4
C=CCn1c(C(C)NC(=O)COC)nc2ccccc21 (stereo not drawn)	0.1
O=C(NC1CCCCC1)C(c1ccccn1)N(C(=O)Cc1cccs1)c1ccc(Cl)cc1 (stereo not drawn)	0.8
Fc1ccc(C(c2nnnn2Cc2ccco2)N2CCN(C3CCCCC3)CC2)cc1 (stereo not drawn)	3.8
O=C(O)c1[nH]c2ccccc2c1NS(=O)(=O)Cc1ccccc1	1.5
COCCCN(C(=O)Nc1ccccc1)C(C)c1ccncc1 (stereo not drawn)	1.6
Cc1ccccc1Cc1c(C)nc2c(C(=O)NCc3ccc4c(c3)OCO4)cnn2c1C	i
O=C(CSc1nc2ncccc2[nH]1)Nc1ccc2c(c1)OCCO2	i
Cn1c(=O)c2c(nc(N3CCOCC3)n2Cc2c(F)cccc2Cl)n(C)c1=O	2.6
CC(=O)c1cccc(NC(=O)CC2SC(N3CCCCC3)=NC2=O)c1 (stereo not drawn)	i
Cc1ccc2oc(-c3ccco3)nc2c1	i
COC(=O)c1ccccc1OP1(=O)COc2ccccc2OC1	i
Cn1c(=O)[nH]c(=O)c2c1ncn2CCN1CCOCC1	0.6
N#C/C(=C\N1CCOCC1)c1ccccc1	0.5
CCSc1nnc(-c2cnn(-c3ccccc3)c2-n2cccc2)n1C	0.3
CCCCN(CCCC)c1nc2ccccc2nc1NS(=O)(=O)c1ccc(NC(C)=O)cc1	i
CCOC(=O)CSc1nnc(CNC(=O)c2ccc(S(=O)(=O)N3CCCCC3)cc2)n1C	1.7
COc1ccc(CN/C=C2\CCCCC2=O)cc1	0.6
CC12CCC(C(=O)NCc3ccccn3)(OC1=O)C2(C)C (stereo not drawn)	1.2
O=C(CCS(=O)(=O)Cc1ccccc1)N1CCN(Cc2ccccc2)CC1	0.3
CCOC(=O)C1CCN(C(=O)c2oc3ccc(S(=O)(=O)N4CC(C)CC(C)C4)cc3c2C)CC1 (stereo not drawn)	7.4
O=C1CCCN1CCCNc1ncnc2c1[nH]c1ccccc12	0.1
COc1ccc(NC(=O)c2cccnc2Nc2ccccc2)cc1	0.9
Cc1cnc(NC(=O)CCCSc2nc3ccccc3s2)s1	i
O=C(Nc1ccc(-n2ccnc2P(=O)(O)c2ccccc2)cc1)c1ccccc1Br	i
Nc1ccc2c(c1)ncn2CCCn1cnc2cc(N)ccc21	1.0
COc1ccc(/C=C2\CCCC3C2=NN(C(=O)c2ccco2)C3c2ccc(OC)c(OC)c2)cc1OC (stereo not drawn)	i
CC(=O)c1c(O)cc(=O)n(-c2ccccc2)c1-c1ccc(C)cc1	i
CCOC(=O)CSc1nc2ccccc2c(=O)[nH]1	0.2
O=C(O)CCSc1nc2ccccc2c(=O)[nH]1	i
Cc1noc2c1C(c1ccc(N(C)C)cc1)C1=C(CC(C)(C)CC1=O)N2 (stereo not drawn)	0.2
Cc1ccc(C)c(NC(=O)CCC(=O)NNC(=O)C(c2ccccc2)c2ccccc2)c1	i
O=C(CSc1nnc(COc2ccc(F)cc2)o1)N1c2ccccc2CCc2ccccc21	0.1
COc1ccccc1OCc1ccc(C(=O)NCCN(C)C)o1	0.4
COc1ccc(NC(C)=O)cc1NC(=O)CN1CCN(c2ccccn2)CC1	i
O=c1c2c3n(c(=S)nc2[nH]n1-c1ccccc1)CCCCC3	1.1
CN(C)C(=O)C(=O)c1cccn1-c1ccccc1C#N	0.8
CC(C)CCNC(=O)C(c1ccco1)N(Cc1cccs1)C(=O)Cn1nnc2ccccc21 (stereo not drawn)	i
CCCCCCCCCSc1n[nH]c(N)n1	0.5
c1coc(-c2nc(-c3ccncc3)no2)c1	2.4
CCn1c(CNC(=O)C(C)(C)C)nc2ccccc21	1.0
CCOc1ccc(NC(=O)N2CCC(n3nnc4cc(C)ccc43)CC2)cc1	i
O=c1oc2c(CN3CCCCC3)c(O)ccc2c2c1CCCC2	0.2
CCN(Cc1ccncc1)C(=O)c1cccs1	0.2
C/C(Cl)=C\Cn1c(N2CCCC2)nc2c1c(=O)[nH]c(=O)n2C	i
CNC(=O)c1ccccc1NC(=O)c1c(O)c2c([nH]c1=O)CCCC2	0.4
CCCCN1C(=O)NC(=O)C2(Cc3c(nc4ccccn4c3=O)N3CCc4ccccc4C32)C1=O (stereo not drawn)	5.8
Cc1ccc(C(=O)NNC(=S)Nc2cccc(Cl)c2Cl)cc1[N+](=O)[O-]	0.3
O=C(O)c1oc2ccccc2c1CN1CCN(c2ccccc2)CC1	i
(next part)
SMILES	H5N1 CPE
O=C(CSc1nc(C2CCCCC2)n(-c2ccccc2)n1)NCCN1C(=O)CSC1=O	4.0
CCOC(=O)C1CCCN(c2ncnc3c2cnn3-c2cccc(C)c2)C1 (stereo not drawn)	i
NS(=O)(=O)c1ccc(Nc2nc(-c3ccccc3)cs2)cc1	i
CCOc1ccccc1-n1c(SCC(N)=O)nnc1-c1ccco1	i
CCOc1ccc(C(=O)Cc2cc(OC)c(OC)cc2[N+](=O)[O-])cc1	i
O=C(Nc1ccc(Br)cc1)c1nn(C23CC4CC(CC(C4)C2)C3)cc1Br	i
CC(C)=CC(=O)NCc1c(Cl)cccc1-n1cccc1	1.8
CC(Oc1ccc(F)cc1)C(=O)/C=C\N(C)C (stereo not drawn)	i
COc1cc(CNC2CCCCCC2)cc(OC)c1	i
CC(C)n1nnnc1SCC(=O)NNC(=O)C1CCCCC1	i
COc1ccc(CCn2nnnc2C(c2ccc(C)cc2)N2CCN(C)CC2)cc1OC (stereo not drawn)	0.1
COc1ccc(-n2c(Cn3c(=O)sc4ccccc43)nnc2SCC(N)=O)cc1	0.9
CCOC(=O)c1cnc2ccc(C(=O)OC)cc2c1Nc1ccc2c(c1)OCCO2	0.5
CCOc1cc(C2C3=C(CCCC3=O)N(C)C3=C2C(=O)CCC3)cc(Cl)c1O	1.7
Cc1c(C(=O)Nc2ccc(-n3cnnn3)cc2)oc2ccccc12	i
CS(=O)(=O)Nc1ccccc1Oc1ccccc1	0.2
S=c1[nH]ncn1/N=C/c1cccc(Oc2ccccc2)c1	0.3
O=C(CN(C(=O)CNC(=O)c1cccs1)c1ccc2c(c1)OCCO2)NC1CCCC1	i
CC1CCN(CCCOc2ccc(OCc3ccccc3)cc2)CC1	i
COc1ccc(-c2cc(C(F)(F)F)nc(-n3cc(Br)cn3)n2)cc1	i
CCOc1cc(N2C(=O)CC3CS(=O)(=O)CC32)c(OCC)cc1NC(=O)c1ccccc1 (stereo not drawn)	i
CCN(CC)CCCN(Cc1cc2cc(OC)c(OC)cc2[nH]c1=O)C(=O)Nc1ccccc1	i
COC(=O)c1nc(N)sc1-c1ccc(OC)cc1	i
Cc1cccc(N2CCN(C(=O)c3cnn4c(C(F)F)cc(-c5ccccc5)nc34)CC2)c1C	0.9
CC(=O)c1ccc(NC(=O)CSc2nnc(Cc3cccn3C)n2-c2ccc(F)cc2)cc1	i
Cc1ccc(-c2[nH]nc3c2C(c2ccccc2OC(=O)N2CCOCC2)C(C#N)=C(N)O3)cc1 (stereo not drawn)	0.7
CCN1CCN(CC(O)COc2ccc(Cl)cc2)CC1 (stereo not drawn)	0.0
Clc1ccc(-c2nc(Cc3ccccc3Cl)no2)cc1	i
C(=N\n1cnnc1)/c1ccccc1OCCOc1ccccc1	i
O=C1CC(Nc2ccccc2)C(=O)N1CCc1ccccc1 (stereo not drawn)	i
CCN(CC)C(=O)C(=O)N/N=C/c1cccs1	0.5
CSc1ccc(-c2nnn(Cc3ccc(Br)cc3)n2)cc1	i
Cc1nn2c(-n3ccnc3C)c3c(nc2c1-c1ccccc1)CCC3	1.2
CN1CCN(c2ccc(NC(=O)c3cccc(OCc4ccccc4)c3)cc2)CC1	i
COCCCNC(=S)NNC(=S)Nc1ccc(F)cc1F	0.7
c1ccc2c(c1)CCN(c1nc3cc4c(cc3s1)OCO4)C2	i
CC(C)CCNC(=O)CN(Cc1ccc2c(c1)OCO2)C(=O)Cn1nnc(-c2cccs2)n1	i
Cc1cccc(C)c1NC(=O)C(C)c1ccc(-c2ccccc2)c(F)c1 (stereo not drawn)	5.2
O=C(CSc1ccccc1C(=O)O)NCc1ccco1	0.6
Clc1ccc(Cc2ccc(Cl)nn2)c(Cl)c1	i
Cc1ccc(OCCN2C(=O)c3ccccc3C2=O)cc1	i
COc1ccc(NC(=O)[C@H](COCc2ccccc2)NC(=O)OC(C)(C)C)cc1	i
O=C(CNc1ccccc1)N/N=C/c1cc([N+](=O)[O-])ccc1N1CCCC1	0.6
COC(=O)C(C(=O)Nc1cc(C)on1)C1CCCCCC1 (stereo not drawn)	0.1
O=C(Nc1ccccc1Oc1ccccc1)c1cccc([N+](=O)[O-])c1	i
CCCCCC(=O)Nc1ccc(N2CCN(C(=O)c3ccccc3)CC2)cc1	0.0
CCOC(=O)N1CCC(NC(=O)CS(=O)Cc2nc(-c3ccc(OC)c(OC)c3)oc2C)CC1 (stereo not drawn)	i
O=C(NCc1ccco1)c1cnn2c(C(F)F)cc(-c3ccccc3)nc12	3.0
c1ccc2oc(SCc3nc4ccccc4s3)nc2c1	0.0
Cc1nc2ccc(S(=O)(=O)N(C)CC(=O)N3CCc4ccccc43)cc2s1	i
Cc1cccc(NC(=O)c2ccc(C3SCC(=O)N3CCc3ccccc3)cc2)c1C (stereo not drawn)	1.7
S=c1[nH]nc(COc2ccccc2)n1/N=C/C(Cl)=C/c1ccccc1	6.2
CS(=O)(=O)N(CC(=O)O)c1ccc(Oc2ccccc2)cc1	1.6
Cc1ccc2[nH]c(=O)c(C3C(C#N)=C(N)Oc4c3ccc3cccnc43)cc2c1 (stereo not drawn)	i
CCN(CC(=O)Nc1ccc2c(c1)CCC2)Cc1nc2ccccc2c(=O)[nH]1	i
CC(=O)Nc1ccc(OCC(O)Cn2c(C)nc3ccccc32)cc1 (stereo not drawn)	1.0
Cc1nc(NCC2CCCO2)nc2c1C(=O)CC(C)(C)C2 (stereo not drawn)	1.6
CCC1=NN(C(=O)Cc2ccc(OC)cc2)C(O)(C(F)(F)F)C1 (stereo not drawn)	0.3
C=CCn1c(COc2ccccc2F)nnc1SCC(=O)Nc1cc2oc3ccccc3c2cc1OC	1.0
O=C(CSc1nnc(-c2ccco2)o1)NC(=O)Cc1ccccc1	0.9
Next section
SMILES	H5N1 CPE
CCc1ccc(NC(=O)N(CCCN2CCOCC2)C(C)c2cc3cccc(OC)c3o2)cc1 (stereo not drawn)	i
Cc1ccc(C(=O)NC2CCCCCC2)o1	0.7
Cc1cccc2sc(NC(=O)c3ccc(Cl)s3)nc12	i
Cc1nn(CCc2n[nH]c(=S)n2C)c(C)c1Br	i
COc1ccccc1-c1nc(NC(C)=O)n[nH]1	i
CC1CN(c2nc3c(c(=O)n(C)c(=O)n3C)n2Cc2c(F)cccc2Cl)CC(C)O1 (stereo not drawn)	2.1
COc1ccccc1Nc1nc(C)cs1	1.2&3.4
COc1cc(/C=N/NC(N)=O)cc(Br)c1OCc1ccc(C)cc1	2.5
Cc1nc(NC(=O)COc2ccccc2)sc1C(=O)Nc1cccc(Cl)c1	0.8
CSc1nc(Cc2ccc(Cl)cc2)nc2ccccc12	i
Cc1ccc(OCCNC(=O)/C=C/c2ccc([N+](=O)[O-])cc2)cc1C	1.3
Clc1c(CSc2nc3ccccc3o2)nc2sccn12	2.3
O=C(CSCc1cccc(Br)c1)N=Nc1c(O)[nH]c2ccccc12	0.5
N#CC1=C(N)N=C(SCc2cccc3ccccc23)C(C(N)=O)C12CCCCC2 (stereo not drawn)	i
Cc1ccc(Nc2nc(N)nc(CSc3nccn3C)n2)cc1	0.8

Some of these compounds in order of SMILES length, lowest first:
SMILES	H5N1 CPE
Cc1ccc(C(=O)NC2CCCCCC2)o1	0.7
Cc1cccc2sc(NC(=O)c3ccc(Cl)s3)nc12	i
N#CC1=C(N)N=C(SCc2cccc3ccccc23)C(C(N)=O)C12CCCCC2 (stereo not drawn)	i

In the list so far, 14 contain fluorine:
SMILES	H5N1 CPE
CCn1c(CCNC(=O)c2ccc(F)cc2)nc2ccccc21	2.1
Fc1ccc(C(c2nnnn2Cc2ccco2)N2CCN(C3CCCCC3)CC2)cc1 (stereo not drawn)	3.8
Cn1c(=O)c2c(nc(N3CCOCC3)n2Cc2c(F)cccc2Cl)n(C)c1=O	2.6
O=C(CSc1nnc(COc2ccc(F)cc2)o1)N1c2ccccc2CCc2ccccc21	0.1
CC(Oc1ccc(F)cc1)C(=O)/C=C\N(C)C (stereo not drawn)	i
COc1ccc(-c2cc(C(F)(F)F)nc(-n3cc(Br)cn3)n2)cc1	i
Cc1cccc(N2CCN(C(=O)c3cnn4c(C(F)F)cc(-c5ccccc5)nc34)CC2)c1C	0.9
CC(=O)c1ccc(NC(=O)CSc2nnc(Cc3cccn3C)n2-c2ccc(F)cc2)cc1	i
COCCCNC(=S)NNC(=S)Nc1ccc(F)cc1F	0.7
Cc1cccc(C)c1NC(=O)C(C)c1ccc(-c2ccccc2)c(F)c1 (stereo not drawn)	5.2
O=C(NCc1ccco1)c1cnn2c(C(F)F)cc(-c3ccccc3)nc12	3.0
CCC1=NN(C(=O)Cc2ccc(OC)cc2)C(O)(C(F)(F)F)C1 (stereo not drawn)	0.3
C=CCn1c(COc2ccccc2F)nnc1SCC(=O)Nc1cc2oc3ccccc3c2cc1OC	1.0
CC1CN(c2nc3c(c(=O)n(C)c(=O)n3C)n2Cc2c(F)cccc2Cl)CC(C)O1 (stereo not drawn)	2.1

Screening results (PubChem)
